Compound activity from PubChem.
Mtb bLac sens – beta-lactam sensitization of Mtb H37Rv | M. tuberculosis H37Rv growth with meropenem, percent inhibition; hits of this screen are not shown here | inhibition, % at 25 µM | 0.27% of 330,000 active;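 active means about 74% or more and at least 40 points above the plate without the antibiotic, then above 30% in a dose series; inconclusive means first-round hits that could not be retested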;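 further: growth measured after seven days incubation then overnight dye step; 0% = bacteria only wells and 100% = bacteria with antibiotic; twin plates without the antibiotic show which effects depend on it; some results filed as inactive read as strong as hits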
YopH PTP inh – inhibitors of Yersinia enterocolitica YopH tyrosine phosphatase; fluorescence Ex485/Em525; inhibition, %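 (about 10 µM by stock and volumes)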; 0.16% of 140,000 active; AID 898;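 active means inhibition of 50% or more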;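 further: controls were vehicle for no effect and minimum signal wells for full effect; inactives centre near -20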
Mtb growth – M. tuberculosis H37Rv growth inhibitors, H37Rv strain (AID 1626); M. tuberculosis H37Rv growth inhibition; higher % means a stronger effect; 0.95% of 220,000 active; one-dose inhibition, % at 10 µM; IC50 in µM for titrated hits;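 active means confirmed in a dose series; inconclusive means inhibition above 80% but not taken into the dose series; inactive means below 80% or under 30% at every dose of the series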;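 further: bacteria incubated seven days before Alamar blue readout; 0% = bacteria only wells and 100% = bacteria with antibiotic wells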
Arbovirus inh – arbovirus infection inhibition. 0.37% of 200,000 active. arbovirus infection cell-based antiviral screen. inhibition, % at 10 µM. AID 1251;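 active means inhibition from about 30%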;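 further: bluetongue infection of BSR cells; cell survival read as ATP light after 72 h; 0% = infected wells without compound and 100% = uninfected wells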
RecA intein inh – blocks M. tuberculosis RecA intein splicing. P9WHJ3. cell-free RecA intein splicing, fluorescence. inhibition, %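 (about 9 µM by stock and volumes)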. 0.75% of 290,000 active; in the data active means inhibition above about 30%; inconclusive means no clear call, values can overlap the other calls;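 further: 0% = vehicle wells and 100% = reference inhibitor control wells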
Target sequence (P9WHJ3 whole entry, looked up): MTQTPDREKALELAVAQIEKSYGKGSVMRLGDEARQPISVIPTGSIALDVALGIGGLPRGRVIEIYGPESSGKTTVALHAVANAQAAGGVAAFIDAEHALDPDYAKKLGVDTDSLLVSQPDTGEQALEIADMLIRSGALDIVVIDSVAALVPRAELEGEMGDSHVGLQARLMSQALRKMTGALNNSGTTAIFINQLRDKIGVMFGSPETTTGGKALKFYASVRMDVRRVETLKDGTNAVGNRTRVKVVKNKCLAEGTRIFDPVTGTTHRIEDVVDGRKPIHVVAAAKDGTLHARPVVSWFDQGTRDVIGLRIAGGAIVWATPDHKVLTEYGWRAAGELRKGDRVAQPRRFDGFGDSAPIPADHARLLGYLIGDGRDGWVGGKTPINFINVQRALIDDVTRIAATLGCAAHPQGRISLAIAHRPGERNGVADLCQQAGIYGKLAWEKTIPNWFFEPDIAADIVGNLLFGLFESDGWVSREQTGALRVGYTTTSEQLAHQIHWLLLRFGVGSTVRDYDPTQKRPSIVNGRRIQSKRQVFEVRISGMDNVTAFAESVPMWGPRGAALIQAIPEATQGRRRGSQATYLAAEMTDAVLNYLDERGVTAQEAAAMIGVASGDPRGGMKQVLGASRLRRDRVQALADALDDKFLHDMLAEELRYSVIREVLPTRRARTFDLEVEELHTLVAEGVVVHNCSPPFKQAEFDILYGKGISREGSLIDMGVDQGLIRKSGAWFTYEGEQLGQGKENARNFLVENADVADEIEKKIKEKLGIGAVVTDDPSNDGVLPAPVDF
Arbovirus inh repeat – also measured in Arbovirus inh; calls as there; inhibition, %; measured here: 10K subset replicate screen; many hits read low in the repeat;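 first of two repeat runs on a subset; 0% = infected and 100% = uninfected wells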
Starred values were filed as active, the others as inactive; ? = inconclusive; . = no result given; & = joins results of further samples. A portion of the library; count on the stated rates, not on these rows.

SMILES	Mtb bLac sens	YopH PTP inh	Mtb growth	Arbovirus inh	RecA intein inh	others
CCOc1ccc(N2C(=O)CC(N3CCN(c4ccccc4F)CC3)C2=O)cc1 (stereo not given)	-9	-50	.	3	-3.4
COc1cccc(NC(=O)CN2C(=O)CSc3ccc(S(=O)(=O)N4CCC(C)CC4)cc32)c1	0	.	.	.	0.1
COc1ccc(NS(=O)(=O)c2cc(NC(=O)c3ccc(F)cc3)ccc2OC)cc1	-3	-14	-2%	-8	-1.7
O=C(N/N=C/c1cnc(N2CCCCC2)s1)c1ccc(C(F)(F)F)cc1	39	.	41%	-14	-2.9
O=C(COc1ccc(F)cc1)NNC(=O)c1cc2ccccc2oc1=O	15	3	0%	-4	-7.7
Cc1nc(N[C@@H](Cc2ccccc2)C(=O)O)c2oc3ccccc3c2n1	6	-7	.	-3	-0.7
Cc1cccc(NC(=O)c2cc(Cl)ccc2[N+](=O)[O-])c1	-2	-26	7%	0	-3.5
C=CCn1c(SCc2ccc3nonc3c2)nnc1-c1cccs1	1	9	8%	-1	5.2
O=C(NCc1ccco1)C1CCCN(S(=O)(=O)c2cccc3cccnc23)C1 (stereo not given)	2	-38	3%	4	-1.2	Arbovirus inh repeat=3
COc1ccccc1CN1CC(C(=O)N(C)CCOc2ccccc2)CCC1=O (stereo not given)	6	.	.	.	-2.1
CC(C)Oc1ccc(C(=O)NC(Cc2c[nH]c3ccccc23)C(=O)NN)cc1 (stereo not given)	-4	.	-4%	.	-0.3
NN/C(=C\[N+](=O)[O-])Nc1ccccc1	94	.	.	-1	-6.6
O=C(O)c1ccc(Nc2nc(-c3ccccc3)nc3ccccc23)cc1	22	.	.	.	2.9
c1ccc2sc(N3CCNCC3)nc2c1	-10	.	3%	11	.
Cc1nccc2c1[nH]c1ccc(Br)cc12	7	.	.	.	0.2

For convenience, six of the compounds above.
SMILES	Mtb bLac sens	YopH PTP inh	Mtb growth	Arbovirus inh	RecA intein inh	others
O=C(COc1ccc(F)cc1)NNC(=O)c1cc2ccccc2oc1=O	15	3	0%	-4	-7.7
Cc1nc(N[C@@H](Cc2ccccc2)C(=O)O)c2oc3ccccc3c2n1	6	-7	.	-3	-0.7
Cc1cccc(NC(=O)c2cc(Cl)ccc2[N+](=O)[O-])c1	-2	-26	7%	0	-3.5
C=CCn1c(SCc2ccc3nonc3c2)nnc1-c1cccs1	1	9	8%	-1	5.2
O=C(NCc1ccco1)C1CCCN(S(=O)(=O)c2cccc3cccnc23)C1 (stereo not given)	2	-38	3%	4	-1.2	Arbovirus inh repeat=3
COc1ccccc1CN1CC(C(=O)N(C)CCOc2ccccc2)CCC1=O (stereo not given)	6	.	.	.	-2.1

(listing goes on)
SMILES	Mtb bLac sens	YopH PTP inh	Mtb growth	Arbovirus inh	RecA intein inh	others
O=C(Nc1cccc(-c2nc3cccnc3s2)c1)C1c2ccccc2Oc2ccccc21	.	-17	.	-15	-0.3
CC1(C)CC2(CCO1)OC(=O)CC2C(=O)Nc1c(Cl)cccc1Cl (stereo not given)	-11	.	0%	.	-0.2
COc1ccc2c3c1OC1CC(O)C=CC31CCN(C)C2 (stereo not given)	-5&-6	.	-7%	.	0.7&-1.3
Cc1cccc(NC2=C(C#N)C(=O)NC3(CCCC3)S2)c1	1	.	-6%	.	-0.9
O=C(Sc1cccc2cccnc12)c1ccc(F)cc1	.	.	?	-26	.
Cc1ccccc1N(CC(=O)Nc1ccc(F)cc1)S(C)(=O)=O	-8	-3	5%	4	0.6
CCOc1cccc(OCCOCCNC(C)(C)C)c1	0	-10	0%	-5	0.6
COCCNC(=O)c1onc(CSc2ccccc2)c1C(=O)O	-1	-4	-3%	-1	-1.7
CC(C)(C)c1nn(-c2ccccc2)c2[nH]c(=O)c(CNCc3ccco3)cc12	99	-28	.	-10	-2.0
COc1ccc(C(=O)NNC(=O)CSc2nc3c([nH]2)c(=O)n(C)c(=O)n3C)cc1	-9	.	-2%	-3	.
CCOC(=O)NCC(C#CCN(CC)CC)N(CC)CC (stereo not given)	-6	-24	-1%	-4	-0.9
Cc1ccc(Nc2nc(N)nc(CSc3nncn3C)n2)cc1	-7	-13	2%	5	-1.9
CCCCOC(=O)C1=C(C)NC(=O)NC1c1ccc([N+](=O)[O-])s1 (stereo not given)	7	-23	0%	2	-4.3
Cc1cc(C)cc(N2CCCC2=O)c1	-22	-23	-9%	-2	1.7
C=C(C)C(=O)Nc1cccc(C2=NOC3(C2)C[C@@H](C(N)=O)N(C(=O)/C(C)=C/C)C3)c1 (stereo not given in full)	-1	.	-4%	.	-2.1
FC(F)(F)c1cccc(Nc2cc(-c3ccccc3)nc3ncnn23)c1	-3	.	0%	.	1.2
CCCCn1c(N)c(N(CC(C)C)C(=O)c2cccc(S(=O)(=O)N(C)c3ccc(C)cc3)c2)c(=O)[nH]c1=O	0	.	.	.	-0.3
COC(CNC(=O)C1CCN(C(=O)c2cc3oc(C)cc3n2Cc2c(F)cccc2Cl)CC1)OC	0	.	0%	6	-4.8
CN(Cc1ccccc1)c1nc2c(c(=O)[nH]c(=O)n2C)n1Cc1ccccc1Cl	-3	12	-2%	2	1.1
Cn1c(CC(=O)Nc2ccccc2F)nnc1SCC(=O)NC1CCCC1	-2	.	.	.	1.6
Cc1ncoc1C(=O)N1CCCC(C(=O)c2ccc(C(F)(F)F)cc2)C1 (stereo not given)	-2	.	-6%	11	1.1
CNC(=O)NC(=O)CSc1nc2sccc2c(=O)n1-c1ccccc1	-4	.	.	.	-2.0
COc1cccc(CN2CCN(Cc3cccn3-c3cccnc3)CC2CCO)c1 (stereo not given)	5	.	-11%	-2	-0.6
Cn1c(=O)c(C(=O)CN2CCc3ccccc32)c(N)n(Cc2ccccc2)c1=O	4	-17	6%	0	11
CN(Cc1ccccc1)S(=O)(=O)c1ccc(NC(=S)NC(=O)C2CCCCC2)cc1	1	-15	8%	4	-0.7
Cc1ccc(OCC(=O)NNC(=O)c2ccoc2C)c(Br)c1	-2	-23	-5%	1	-4.0
Cc1c(NC(=O)c2cc(-c3ccc(Br)cc3)on2)c(=O)n(-c2ccccc2)n1C	6	.	.	.	1.3
Cc1ccc(NC(=S)NC(=O)c2sc3ccccc3c2Cl)c(C(=O)O)c1	.	.	41%	14	3.4
CCC(=O)N1CCN(c2ccccc2NC(=O)Cc2ccccc2)CC1	0	-24	-9%	4	1.5
O=C(O)C1=C[C@H](c2ccc3c(c2)OCO3)C[C@H](OCc2ccc(CO)cc2)O1	3	.	0%	.	-3.4

Fetched by structure from the entries so far:
SMILES	Mtb bLac sens	YopH PTP inh	Mtb growth	Arbovirus inh	RecA intein inh	others
CNC(=O)NC(=O)CSc1nc2sccc2c(=O)n1-c1ccccc1	-4	.	.	.	-2.0
COc1cccc(CN2CCN(Cc3cccn3-c3cccnc3)CC2CCO)c1 (stereo not given)	5	.	-11%	-2	-0.6
Cc1ccc(NC(=S)NC(=O)c2sc3ccccc3c2Cl)c(C(=O)O)c1	.	.	41%	14	3.4

Other entries follow.
SMILES	Mtb bLac sens	YopH PTP inh	Mtb growth	Arbovirus inh	RecA intein inh	others
C/C(=N/NC(=O)Nc1ccccc1)c1ccc(C)cc1	-2	-24	-6%	4	2.5
COc1ccc(N2CC(NS(=O)(=O)c3ccc4ccccc4c3)CC2=O)cc1OC (stereo not given)	0	.	.	.	1.9
CC(=O)c1c(C)[nH]c(C2=NNC(=NCc3ccccc3)SC2)c1C	2	.	-9%	11	6.3
CC(=O)N1CCc2c(sc3c2c(=O)n(-c2ccccc2)c(=O)n3Cc2ccccc2Cl)C1	-1	-7	-2%	-7	-4.3
CCN(CC(=O)Nc1ccc(NC(C)=O)cc1)C(=O)c1n[nH]c(=O)c2ccccc12	-4	.	-1%	7	-4.1
CC(=O)Nc1ccc(NC(=O)C(C)N2CCN(S(=O)(=O)c3ccc(C)cc3)CC2)cc1 (stereo not given)	3	.	-6%	9	-2.4
O=C(CCC(=O)N1CCOc2ccc(Cl)cc21)NCc1ccccc1	-4	.	.	.	0.6
O=C1C=C(OCc2ccccc2)CN1	1	-34	1%	5	.
CC(Nc1cc(=O)n(C)c(=O)n1C)c1ccccc1 (stereo not given)	-8	-20	-6%	-3	5.0
N#C/C(=C\c1ccc(O)c([N+](=O)[O-])c1)C(=O)NCc1ccccc1	4	.	-7%	2	3.7
S=c1[nH]nc(Nc2ccccc2Cl)s1	-3	.	0%	1	-4.8
O=C(c1cccc([N+](=O)[O-])c1)N1CCN(c2ccc(N3CCOCC3)nn2)CC1	88	.	.	.	1.0
Cc1cc(C(=O)Nc2sccc2C#N)c2ccccc2n1	12	.	.	.	6.0
N#Cc1ccccc1S(=O)(=O)N1CCN(C(=O)CN2C(=O)NC3(CCCC3)C2=O)CC1	-12	.	.	.	0.9
CC(=O)NC12CC3CC(C1)CC(C(=O)N(C)Cc1cccc(Cl)c1Cl)(C3)C2	0	.	.	.	1.3
O=C(CCSCc1ccccc1Cl)N1CCN(c2ccccn2)CC1	36	13	6%	11	2.4
Cc1ccc(C2=NNC(c3cccc(F)c3)S2)cc1 (stereo not given)	9	.	5%	-3	1.2
CCOC(=O)C1=NN(C(=O)c2cccc(Br)c2)C(O)(C(C)(C)C)C1 (stereo not given)	18	.	-8%	.	3.1
Cc1cccc(-c2nc(CS(=O)CC(=O)NC(C)CCc3ccccc3)c(C)o2)c1 (stereo not given)	-1	.	.	.	4.4
O=C(CN1CCN(c2ccccc2)CC1)Nc1ccc2c(c1)OCCO2	-3	.	3%	4	0.4
CCCC(C)NC(=O)c1c2c(nc3ccccc13)CCC2 (stereo not given)	-2	.	-4%	15	4.0
COC(=O)C1CC(O)CN1C(=O)c1ccco1 (stereo not given)	-13	-29	-3%	3	-0.2
CN(Cc1ccccc1)C(=O)CSc1nc2cc(C(=O)N3CCC(C(N)=O)CC3)ccc2c(=O)n1-c1ccccc1	-1	.	0%	.	-0.3
CC(NC(=O)CCNS(=O)(=O)c1cccc2nsnc12)c1ccccc1 (stereo not given)	-7	.	.	.	1.0
CN(c1ccccc1)S(=O)(=O)c1ccc(Cl)c(C(=O)OCC(=O)N2CCOCC2)c1	-6	.	-1%	5	-1.5
COc1ccc(OC)c2c1sc(=NC(=O)C(C)C)n2C	-1	.	8%	9	1.2	Arbovirus inh repeat=8
O=C(O)c1ccccc1Nc1cc(Cl)c2nonc2c1[N+](=O)[O-]	24	.	.	.	90*
CC1(C)CC(=O)C(C(c2ccncc2)C2C(=O)CC(C)(C)CC2=O)C(=O)C1	8	-26	-5%	.	-3.8
Cc1cc(-c2ccc(S(=O)(=O)N3CCN(c4ccccc4F)CC3)s2)on1	4	.	.	.	0.7
Cc1noc(C)c1Cc1ccc(O)cc1	0	-24	-9%	-16	-4.4
Cc1ccccc1-c1noc(C23CC4CC(CC(C4)C2)C3)n1	8	7	1%	-7	15
O=C(/C=C/c1cccc([N+](=O)[O-])c1)Nc1cc(C(=O)O)cc(C(=O)O)c1	-6	.	-1%	0	0.8
COc1ccc(CCn2nnnc2C(CC(C)C)N2CCN(c3ncccn3)CC2)cc1OC (stereo not given)	1	-44	.	3	1.6
O=C(Oc1ccccc1)N1CCN(C(=O)c2ccco2)CC1	-3	.	.	.	-1.7
COc1cc(C(=O)OCC(=O)N2CCC(Cc3ccccc3)CC2)cc(OC)c1OC	20	.	.	.	-2.8
CO/N=C/CC(=O)c1cnc(-c2ccc(Cl)cc2)s1	96	.	-8%	1	-1.0
O=C(O)COc1ccc(S(=O)(=O)NCCc2ccccc2)cc1	-8	-12	-2%	-2	1.8	Arbovirus inh repeat=-2
O=c1[nH]c2ccc(S(=O)(=O)N3CCCCC3)cc2[nH]c1=O	-4	-26	1%	4	2.4
Fc1ccccc1N1CCN(Cc2c(F)cccc2F)CC1	-5	-6	-5%	2	-0.4
CCC1CO/C(=C(\C(Cl)=C(Cl)Cl)[N+](=O)[O-])N1Cc1ccc(Cl)nc1 (stereo not given)	-5	.	.	.	-1.1
O=C(C1CCC(CNS(=O)(=O)c2cccs2)CC1)N1CCCCC1 (stereo not given)	-6	-1	-2%	1	4.2
COc1cccc(/C=C2\SC(N3CCC(C)CC3)=NC2=O)c1OC	1	.	.	.	1.4
Cc1cnc(C(=O)OCC(=O)NC(=O)c2ccccc2)cn1	-8	.	.	.	0.4
